KCNQ2 block – KCNQ2 potassium channel inhibitors, primary screen, cell-based, CHO-K1, FluxOR thallium flux, B-score (AID 2156). B-score at 10 µM. 20 min; stronger effect = lower value; only compounds with negative scores are shown here; some inactives read as strong as hits. hit rate 1.1% among 310,000. Potassium voltage-gated channel subfamily KQT member 2 (Rattus norvegicus), O88943;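 active = fluorescence ratio B-score at most minus 3 library SDs, with starting brightness B-score within 2 library SDs, cut at about -5.5 in these data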
Target sequence (O88943 whole entry, looked up): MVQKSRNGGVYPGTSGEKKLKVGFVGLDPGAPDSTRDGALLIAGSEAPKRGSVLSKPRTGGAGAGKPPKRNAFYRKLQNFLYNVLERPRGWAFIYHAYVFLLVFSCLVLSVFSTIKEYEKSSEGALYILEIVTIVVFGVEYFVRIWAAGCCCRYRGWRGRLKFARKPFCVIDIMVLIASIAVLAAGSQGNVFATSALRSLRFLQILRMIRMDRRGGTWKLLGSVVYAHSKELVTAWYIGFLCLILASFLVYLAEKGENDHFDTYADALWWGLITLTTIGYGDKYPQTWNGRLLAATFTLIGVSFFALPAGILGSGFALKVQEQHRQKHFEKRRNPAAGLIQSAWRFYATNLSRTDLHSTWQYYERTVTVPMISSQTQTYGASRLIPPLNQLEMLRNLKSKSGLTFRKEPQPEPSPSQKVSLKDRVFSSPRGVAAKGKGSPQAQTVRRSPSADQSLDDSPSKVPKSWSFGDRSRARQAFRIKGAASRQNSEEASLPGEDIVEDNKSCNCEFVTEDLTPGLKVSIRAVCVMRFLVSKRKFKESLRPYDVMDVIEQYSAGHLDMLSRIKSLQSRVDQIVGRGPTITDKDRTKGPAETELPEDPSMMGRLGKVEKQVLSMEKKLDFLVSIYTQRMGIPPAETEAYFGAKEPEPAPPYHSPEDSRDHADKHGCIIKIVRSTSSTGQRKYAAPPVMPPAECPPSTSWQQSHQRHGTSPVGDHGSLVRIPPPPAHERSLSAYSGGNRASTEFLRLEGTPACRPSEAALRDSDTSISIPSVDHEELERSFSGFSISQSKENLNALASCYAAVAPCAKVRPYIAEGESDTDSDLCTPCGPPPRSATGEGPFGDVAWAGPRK
KCNQ2 block baseline – further read-out of KCNQ2 block, marked with its call; B-score; measured here: initial fluorescence intensity artifact check;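 brightness before thallium and not channel activity; 0 = typical well and far values either way flag optical interference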
* hit, by the source's call; i = inactive. This is a subset. The share of hits here may be higher or lower than overall.

SMILES | KCNQ2 block | KCNQ2 block baseline
Nc1sc2c(c1C(=O)NC1CCS(=O)(=O)C1)CCC2 (configuration not stated) | i | 3.43
N=C1/C(=C\c2ccc(SCc3ccccc3)o2)C(=O)N=C2SC(CC(=O)N3CCOCC3)=NN12 | i | 0.44
COc1ccc(OC)c(CC(NC(C)=O)C(=O)NC2CCN(c3nc(OC)nc(OC)n3)CC2)c1 (configuration not stated) | i | -1.66
CNC(=O)N(C1=NCC(C)S1)c1ccc(F)cc1F (configuration not stated) | i | 2.73
CC(C)=CCCC(C)CN1CCC(O)CC1 (configuration not stated) | i | -0.09
CCOc1cc(C(=O)Nc2ccc(S(=O)(=O)Nc3nnc(CC)s3)cc2)cc(OCC)c1OCC | i | 0.9
O=C(CN1C(=O)/C(=C/c2ccco2)SC1=S)Nc1ccc(C(=O)O)c(O)c1 | i | -0.21
NC(=O)c1ccc[n+](Cc2cccc3ccccc23)c1 | i | 0.98
CCCCCCn1c(SCCOC)nc2c1c(=O)[nH]c(=O)n2C | i | 0.24
O=C(Nc1cccn(Cc2c(Cl)cccc2Cl)c1=O)c1ccc(Cl)cc1Cl | i | -0.04
COC(=O)COc1cccc(NC(=O)c2cc(OC)cc(OC)c2)c1 | i | -2.36
CC(=O)Oc1ccc(-c2ccc(C(=O)OCC(=O)N(C)CC(=O)Nc3ccccc3Cl)cc2)cc1 | i | 0.02
CC1=C(C(=O)OCc2ccc3c(c2)OCO3)C(c2ccccc2OCc2ccccc2)NC(=O)N1 (configuration not stated) | i | 1.14
CC1(C)Cc2cccc(OCC(=O)N3CCN(c4ccccc4F)CC3)c2O1 | i | -0.09
Cc1ccc(OCCNC(=O)Cn2cnc3c(=O)n(C)c(=O)n(C)c32)cc1C | i | -2.34
Cc1ccc(Cl)cc1Nc1nc(-c2sc(NC(=O)C(C)(C)C)nc2C)cs1 | i | -0.51
CCOc1ccccc1CNC(=O)Cn1ccc2cc(S(=O)(=O)N3CCC(C)CC3)ccc21 | i | -0.22
CCc1nnc(NC(=O)CN2CCN(Cc3ccccc3C)CC2)s1 | i | 0.3
O=C(COC(=O)c1cccc(S(=O)(=O)N2CCOCC2)c1)Nc1ccc2c(c1)OCO2 | i | 0.51
Cc1cccc(C)c1OCc1cc(C(=O)NCc2ccc(Cl)s2)no1 | i | -0.72
COc1ccc(Nc2nc(-c3cccs3)cs2)cc1 | i | 0.23
Cc1ccc(S(=O)(=O)NCCC(=O)N2CCOCC2)cc1C | i | 0.24
COc1ccc(N(CC(=O)N2CCCCCC2)S(C)(=O)=O)cc1Cl | i | 0.14
CN(Cc1ccsc1)C(=O)CCc1nnc(CCCc2ccccc2)o1 | i | -0.44
Cc1cnc(NC(=O)Cn2cnc3c2c(=O)n(C)c(=O)n3C)s1 | i | 0.13

Further results follow:
SMILES | KCNQ2 block | KCNQ2 block baseline
O=C(CC1C(=O)NCCN1C(=O)Nc1ccccc1)Nc1cccc(C(F)(F)F)c1 (configuration not stated) | i | -0.44
O=C(C[C@@H]1NS(=O)(=O)OC2CCCCC21)c1ccccc1 (some centres not stated) | i | -0.04
O=c1cc(O)c2c(=O)n(-c3ccccc3)c3c(c2o1)CCCCCC3 | i | 1.84
Cc1cc(C)cc(OCC(=O)N/N=C/c2ccco2)c1 | i | -0.18
COc1ccc(CC(=O)Nc2cccc(SC)c2)cc1 | i | -0.74
O=c1c2ccc(Cl)cc2[nH]c(=S)n1CCCN1CCOCC1 | i | -0.34
COc1cc(C)c(C)cc1S(=O)(=O)N1CCCCC1c1cccnc1 (configuration not stated) | i | 0.18
Cc1ccc(SCc2cn3cc(Cl)ccc3n2)cc1 | i | -1.87
CC(C)c1ccc(NC2CCCN(C(=O)c3ccnc(Cl)c3)C2)cc1 (configuration not stated) | i | 1.88
O=C(NNC(=O)c1cccc2ccccc12)c1ccccc1O | i | 0.9
CC1=CN2C(=N)/C(=C/c3ccc(Sc4ccc(Cl)cc4)o3)C(=O)N=C2S1 | i | 0.8
CC(=O)c1ccc(S(=O)(=O)N2CCN(C(=O)CN3C(=O)NC4(CCCC4)C3=O)CC2)cc1 | i | -0.21
CC(Oc1ccc(S(=O)(=O)N2CCCC2)cc1[N+](=O)[O-])C(=O)NC(C)c1ccccc1 (configuration not stated) | i | -1.21
COc1cc(/C=N/NC(=O)C[n+]2ccccc2)cc(OC)c1OC | i | 1.1
O=C(N/N=C/c1ccc([N+](=O)[O-])cc1)c1cccc2cc[nH]c12 | i | 0.97
CC1(C)CSC(=NCCc2ccccc2)N1C(=O)c1ccc(C#N)cc1 | i | -0.22
C=CCn1c(CCNC(=O)c2cccs2)nnc1SCC(=O)Nc1cccc(Cl)c1C | i | -0.8
COC(=O)c1cn(NC(=O)Cc2ccc(OC)c(OC)c2)c(=O)c2ccccc12 | i | -0.08
COc1cc(C(=O)NC2CC(C)(C)CC(C)(C)C2)ccc1OC1CCN(C(C)=O)CC1 | i | -0.06
O=C(NCCc1ccccc1)C1CCC(=O)N(CCCN2CCCC2=O)C1 (configuration not stated) | i | 3.67
Cn1cnnc1Sc1ccc(/C=C/C(=O)c2ccc(O)cc2)cc1[N+](=O)[O-] | i | -1.29
CC(=O)N1N=C(c2ccncc2)CC1c1ccccc1O (configuration not stated) | i | -0.61
Cc1ccc(C2CC(=O)Oc3cc(O)ccc32)cc1 (configuration not stated) | i | 3.03
O=C(O)c1ccc(/C=N/NC(=O)C2CC2(c2ccccc2)c2ccccc2)cc1 (configuration not stated) | i | 1.61
O=C(CSC1=Nc2ccccc2C2=NC(CC(=O)NCc3ccco3)C(=O)N12)NCc1ccco1 (configuration not stated) | i | 1.29

Full records as entered above:
O=C(NCCc1ccccc1)C1CCC(=O)N(CCCN2CCCC2=O)C1 (configuration not stated) is entered as KCNQ2 block: i; KCNQ2 block baseline: 3.67
COc1ccc(N(CC(=O)N2CCCCCC2)S(C)(=O)=O)cc1Cl is entered as KCNQ2 block: i; KCNQ2 block baseline: 0.14

The listing continues.
SMILES | KCNQ2 block | KCNQ2 block baseline
COc1ccccc1C1C=C(c2ccccc2)Nc2nnnn21 (configuration not stated) | i | 2.27
COc1ccc2[nH]cc(C3N4CC5(C)CN3CC(C)(C4)C5=O)c2c1 (configuration not stated) | i | -0.05
O=[N+]([O-])c1cc(-c2cnc3ccccc3n2)ccc1Oc1ccc(Cl)cc1 | i | -0.43
COC(=O)c1c(NC(=O)CN2CCOCC2)sc2c1CCC(C)C2 (configuration not stated) | i | 0.96
C=CCNC(=O)C1CCC(=O)N1S(=O)(=O)c1ccc(C)cc1 (configuration not stated) | i | -1.25
O=C(NC(=S)NNC(=O)c1cnccn1)c1ccc(F)cc1 | i | 0.49
CCN1CCN(c2cc(C)c3cc(NC(=O)c4ccc(Br)o4)ccc3n2)CC1 | i | -0.08
Cc1cc(C)c(S(C)(=O)=O)c(Oc2cccc(C(F)(F)F)c2)n1 | i | -1.28
CC(=O)O[C@@H]1[C@@H](OC(C)=O)[C@H](n2ccc3cc([N+](=O)[O-])ccc32)OC[C@@H]1OC(C)=O | i | -0.54
O=C1C(CSCc2ccccc2)NC(=S)N1c1ccccc1 (configuration not stated) | i | -2.32
O=Cc1cn(CC(=O)N2CCCCC2)c2ccccc12 | i | 1.68
O=C(CSc1nnc(-c2ccco2)n1-c1ccccc1)NCc1ccc2c(c1)OCO2 | i | -1.11
Cc1ccccc1OCCSc1nc(N(C)C)nc(N(C)C)n1 | i | 2.68
Cc1cccnc1NC(=O)CSc1nnc(COc2ccc(C(C)C)cc2)n1C | i | -0.3
COc1ccccc1/C=C/C=N/n1c(COc2ccccc2)n[nH]c1=S | i | -0.96
COc1ccc(CCN2CCCn3c2nc2c3c(=O)n(Cc3ccccc3F)c(=O)n2C)cc1OC | i | -1.97
COc1ccc(CCNC(=O)C2CCN(S(=O)(=O)c3ccc4nc5c(c(C(=O)O)c4c3)CCCC5)CC2)cc1OC | i | -0.12
O=C(Cc1ccc(-c2ccccc2)cc1)NCc1cccnc1 | i | 1.18
Cc1ccc2[nH]nc(C(=O)N3CCCC(C(=O)c4ccc(Cl)cc4)C3)c2c1 (configuration not stated) | i | -1.34
CCc1ccc2c(c1)C(c1ccc([N+](=O)[O-])cc1)=NNC(c1ccc(F)cc1)=N2 | i | -0.53
COc1ccc(OCC(O)CNC(=O)c2ccc(OC)cc2)cc1 (configuration not stated) | i | 0.03
CCn1c(N)c(C(=O)NCc2cccnc2)sc1=S | i | -0.06
CCC(NC(=O)CCCc1ccccc1)c1ccccc1 (configuration not stated) | i | 0.85
C=CCNC(=S)Nc1ccc(Br)cc1F | i | 1.86
Cc1cc(C(=O)C(=O)NC(C)C)c(C)n1-c1ccc([N+](=O)[O-])cc1 | i | -0.86

New compounds follow:
SMILES | KCNQ2 block | KCNQ2 block baseline
CCCNC(=O)COC(=O)c1ccc(N2CCCC2)c([N+](=O)[O-])c1 | i | 0.31
COc1ccc(C(C(=O)NC2CCCCC2)N(C(=O)c2sc(C)nc2C)c2ccccc2C)cc1 (configuration not stated) | i | -1.61
CCOC(=O)c1ccc(NC(=O)c2ccc3c(c2)OCO3)cc1 | i | 1.69
Cc1noc(C)c1S(=O)(=O)N1CCN(c2ccc([N+](=O)[O-])cc2)CC1 | i | 0.78
COC(=O)c1ccc(N=Cc2c(C(F)(F)F)[nH][nH]c2=O)cc1 | i | 2.51
CNc1c(NS(=O)(=O)c2ccc(F)c(Cl)c2)c(=O)oc2ccccc12 | i | -0.98
Cc1cc(NS(=O)(=O)c2ccc(NC(=O)CSc3nc4ncccc4[nH]3)cc2)nc(C)n1 | i | 0.11
CCOC(=O)c1c(-c2ccc(C)o2)csc1NC(=O)COC(=O)c1ccc(NC(N)=O)cc1 | i | 0.21
Cn1c(=O)c2ccccc2n2c(CCl)nnc12 | i | -1.56
COc1cccc(C(=O)/C=C/c2ccc(N3CCCCC3)c([N+](=O)[O-])c2)c1 | i | -0.57
CC(CCC(=O)O)C1CC[C@@]2(C)C3C(=O)CC4C(C)(C)C(O)CC[C@]4(C)C3C(=O)C[C@]12C (some centres not stated) | i | 0.2
O=C(OCc1nc2ccccc2s1)c1ccccc1O | i | 1.05
c1ccc(CCNc2ncnc3scc(C4COc5ccccc5O4)c23)cc1 (configuration not stated) | i | 2.08
COc1ccc(C2CC(O)(c3ccccc3)Oc3cc(OC)c(OC)c(OC)c32)cc1 (configuration not stated) | i | -0.02
CCN(CC)C(=O)C(=O)N/N=C/c1ccc(C(=O)OC)cc1 | i | 0.4
O=C(O)CCCCCNC(=O)/C=C/c1ccco1 | i | 1.07
CCOC(=O)c1ccccc1NC(=O)COC(=O)CSCC(=O)Nc1cc(C)on1 | i | 0.35
COc1ccccc1C1CN=NC12CCCc1ccccc1C2=O (configuration not stated) | i | -0.69
COC(=O)Cn1c(CN2CCN(c3ccc(F)cc3)CC2)nc2c1c(=O)n(C)c(=O)n2C | i | 0.19
CC(C)/C=N/Nc1nc(-c2ccc(Br)cc2)cs1 | i | 0.13
C=C(C)CSc1nc(N)cc(=O)[nH]1 | i | 1.61
Cc1cc(OCc2ccccc2)ccc1/C(O)=C1/C(=O)C(=O)N(Cc2cccnc2)C1c1ccncc1 (configuration not stated) | i | 1.05
COC(=O)C(C)Oc1cc(OC(C)C(=O)OC)c2c(-c3ccccc3)cc(=O)oc2c1 (configuration not stated) | i | -0.44
O=C(COc1ccc2ccccc2c1Br)N1CCN(c2ccccn2)CC1 | i | 0.04
COc1ccccc1C(C)Nc1nc(-c2cccnc2)nc2ccccc12 (configuration not stated) | i | 1.2

Remaining list, next part:
SMILES | KCNQ2 block | KCNQ2 block baseline
CC(C)CC1NC(=O)N(CC(=O)Nc2ccccc2-c2ccccc2)C1=O (configuration not stated) | i | -1.49
COc1c(C)cc(C(=O)C2CCCN(Cc3c(C)n(C)n(-c4ccccc4)c3=O)C2)cc1C (configuration not stated) | i | -0.55
O=C(CCc1nnc2ccc(N3CCCC3)nn12)Nc1cc(F)ccc1F | i | -0.04
CCN(C(=O)CSc1nnc(-c2ccc(Cl)cc2)n1C)C1CCS(=O)(=O)C1 (configuration not stated) | i | 0.42
CC(C)N(C(=O)CSc1nc(COc2ccccc2)nc2ccccc12)C(C)C | -7.53* | 0.78*
O=C(CNc1cccc2ccccc12)N/N=C/C(Br)=C/c1ccccc1 | i | 1.78

Another view of some results above:
KCNQ2 block | KCNQ2 block baseline | Compound
i | 0.11 | Cc1cc(NS(=O)(=O)c2ccc(NC(=O)CSc3nc4ncccc4[nH]3)cc2)nc(C)n1
i | 0.21 | CCOC(=O)c1c(-c2ccc(C)o2)csc1NC(=O)COC(=O)c1ccc(NC(N)=O)cc1
i | -1.56 | Cn1c(=O)c2ccccc2n2c(CCl)nnc12
i | -0.57 | COc1cccc(C(=O)/C=C/c2ccc(N3CCCCC3)c([N+](=O)[O-])c2)c1
i | 0.2 | CC(CCC(=O)O)C1CC[C@@]2(C)C3C(=O)CC4C(C)(C)C(O)CC[C@]4(C)C3C(=O)C[C@]12C (some centres not stated)
i | 1.05 | O=C(OCc1nc2ccccc2s1)c1ccccc1O
i | 2.08 | c1ccc(CCNc2ncnc3scc(C4COc5ccccc5O4)c23)cc1 (configuration not stated)
i | -0.02 | COc1ccc(C2CC(O)(c3ccccc3)Oc3cc(OC)c(OC)c(OC)c32)cc1 (configuration not stated)
i | 0.4 | CCN(CC)C(=O)C(=O)N/N=C/c1ccc(C(=O)OC)cc1
i | 1.07 | O=C(O)CCCCCNC(=O)/C=C/c1ccco1
i | 0.35 | CCOC(=O)c1ccccc1NC(=O)COC(=O)CSCC(=O)Nc1cc(C)on1
i | -0.69 | COc1ccccc1C1CN=NC12CCCc1ccccc1C2=O (configuration not stated)
i | 0.19 | COC(=O)Cn1c(CN2CCN(c3ccc(F)cc3)CC2)nc2c1c(=O)n(C)c(=O)n2C
i | 0.13 | CC(C)/C=N/Nc1nc(-c2ccc(Br)cc2)cs1
i | 1.61 | C=C(C)CSc1nc(N)cc(=O)[nH]1
i | 1.05 | Cc1cc(OCc2ccccc2)ccc1/C(O)=C1/C(=O)C(=O)N(Cc2cccnc2)C1c1ccncc1 (configuration not stated)

Assay outcomes (PubChem)
